NPYLR7 agonist – agonists of mosquito NPYLR7 receptor, primary screen, cell-based, Aedes aegypti, calcium fluorescence, mosquito biting behavior. HEK293T NPYLR7/Galpha15, GCaMP6s calcium fluorescence. activation, % at 10 µM. 270,000 tested, 0.15% active. AID 1259423, 2018; in the data active = activation above about 40%;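 note: 0% = vehicle and 100% = reference agonist at the receptor; some compounds past the cut are filed as inactive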
NPYLR7 agonist max-min – also measured in NPYLR7 agonist; calls as there; activation, %; measured here: Max-Min RFU normalised activation; some inactives read as strong as hits;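 span of the calcium signal over five minutes; 0% = vehicle and 100% = native peptide agonist; compound fluorescence can raise it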
An asterisk follows results filed as active; & = joins results of further samples. Not all compounds are listed; count on the stated rates, not on these rows.

no.	canonical_smiles	NPYLR7 agonist	NPYLR7 agonist max-min
1	CC(C(=O)NC1CC1)N1CCN(C(C)c2nc(N)nc(N(C)C)n2)CC1 (stereo not given)	4	6
2	Cc1ccc(S(=O)(=O)N2CCN(C(=O)/C=C/c3cnn(C)c3)CC2)c(C)c1	9	9
3	Cc1ccc(-c2cccc(C(=O)NCCn3ccnc3)c2)o1	4	3
4	CCc1cnc(N2CCc3nnc(CNC(C)=O)n3CC2)nc1	2	-6
5	CC(C)NC(=O)CCS(=O)(=O)c1ccccc1Cl	18	7
6	COC(=O)c1ccc(-c2nc(CN3CCCC3c3cccc(OC)c3)c(C)o2)cc1 (stereo not given)	2	-2
7	O=c1[nH]nc(CCn2cccn2)n1-c1cccc(Br)c1	15	4
8	N#CC[C@@H](NC(=O)C1=C[C@@H](N)[C@@H](O)[C@H](O)C1)C(N)=O	16	13
9	O=C(CC1=CCCCC1)NCc1cccnc1N1CCOCC1	6	1
10	O=C(c1ccc(Cl)cc1Cl)N(Cc1nc2cc(Cl)ccc2o1)C1CC1	6	4
11	COc1cccc(Cc2cnc(NC(=O)c3cc4ccccc4o3)s2)c1	-1	19
12	CNc1snc(C)c1C(=O)N(C)OC	6	-5
13	COc1ccc(-c2nc(CC(=O)NCc3ccco3)sc2C)cc1	-3	0
14	COc1ccccc1-n1c(SCc2nc(C(=O)NC(C)CCc3ccccc3)cs2)nnc1-c1cccnc1 (stereo not given)	13	7
15	COCCCN(Cc1ccc(OS(C)(=O)=O)cc1)C(=O)Nc1cccc(OC)c1	11	19
16	CCc1ncc(NC(=O)c2ccc(C)c(Cl)c2)cn1	-23	-23
17	CN1CCc2[nH]nc(C(=O)N3CCc4c(nc[nH]c4=O)C3)c2C1	8	5
18	O=C(O)c1cc(N2CCOC2=O)ccc1F	13	10
19	CCCc1[nH]n(-c2ccc(C)cc2C)c(=O)c1C1=C(N(CC)CC)C(=O)N(C2CCCCC2)C1=O	4&23	10&32
20	Clc1ccc2c(c1)SNC(c1ccccc1)=N2	7	8
21	Cc1noc(NC(=O)CC2CCCC2)n1	7	4
22	COc1cccc2cc(C(N)=O)c(=Nc3ccc(C(C)=O)cc3)oc12	-13	-18
23	N[C@@H]1CC[C@@H](NS(=O)(=O)c2cccc(Oc3ccccc3)c2)C1	-2	-4
24	CCOC(=O)c1c(C)[nH]c2ccc3c(c12)CN1CCc2cc(OC)ccc2C1O3 (stereo not given)	-12	-23
25	O=C1CC(C(=O)N(Cc2ccccn2)c2nc3ccc(F)cc3s2)CN1c1ccccc1 (stereo not given)	-5	-9
26	CC(C)(C)CC(=O)N1CCc2c(sc3ncnc(N)c23)C1	2	18
27	Cc1[nH]nc(-n2cnc3ccccc3c2=O)c1-c1ccc(Cl)cc1	1	0
28	CCn1c(C)nnc1SCc1ccc(C(=O)O)cc1	0	-3
29	O=C(NCc1ccncc1)c1ccc(CSc2nnc(-c3ccccc3[N+](=O)[O-])n2Cc2ccccc2)cc1	0	8
30	CCOC(=O)CSc1ccc2nnc(CCNC(=O)c3ccccc3)n2n1	7	3
31	O=c1[nH]c2c(-c3nc4ccccc4[nH]3)c(O)cn2c2sc3c(c12)CCCC3	-4	-15
32	COCC(=O)Nc1ccc(-n2nc(OC)nc2-c2ccc(OC)cc2)cc1	-5	3
33	CC(Oc1ccc(C2=CCN(C(N)=O)CC2)cc1)C(=O)Nc1ccc(F)c(Cl)c1 (stereo not given)	1	0
34	CCOc1ccc(CC(=O)N2CCC(n3c(C(F)(F)F)nc4ccccc43)CC2)cc1	15	8
35	CC1CCc2c(sc(NC(=O)c3nn4c(C(F)(F)F)cc(-c5cccs5)nc4c3Cl)c2C#N)C1 (stereo not given)	6	-3
36	CC(O)C(=O)O (stereo not given)	1	6
37	COC(=O)C(N)Cc1ccc(Cl)cc1 (stereo not given)	1	4
38	CCc1cc(CN(C)C(=O)c2ccc3sc(C)nc3c2)on1	-2	-2
39	O=C(NCc1ccco1)C1CCCN1c1nnc(N2CCCC2=O)s1 (stereo not given)	3	2
40	Cc1ccc(S(=O)(=O)Nc2cc(Cl)ccc2C)cc1C	1	-2
41	NS(=O)(=O)c1ccc(CCn2ccnc2-c2ccccn2)cc1	16	4
42	CSc1ccc(C(=O)CCC(=O)Nc2ccc(C(C)(C)C)cc2)cc1	1	-5
43	O=C(Nc1cccc(Cl)c1)N1CCN(C(C(=O)N2CCSCC2)C2CCCC2)CC1 (stereo not given)	-7	31
44	Nc1cc(-c2cccc(C(F)(F)F)c2)nn1-c1ccc(C(=O)NC(c2ccccc2)c2ccc(Cl)cc2)cc1 (stereo not given)	-5	-10
45	Cc1cc(C)n(C2CCN(CCn3c(=O)oc4ccccc43)C2)n1 (stereo not given)	2	3
46	CCCCN1CC23C=CC(O2)C(C(=O)O)C3C1=O (stereo not given)	3	1
47	CC1CCCCN1C1CN(C(=O)c2ccc(-c3ccn[nH]3)cc2)C1 (stereo not given)	0	-5
48	CN(C)S(=O)(=O)c1csc(-c2cccc(Br)c2)n1	23	15
49	COc1ccc(-c2nnc(SCC(=O)N(C(C)C)C(C)C)o2)cc1	8	7
50	O=C(NCC1CC1)C1CCN(c2ccc(S(=O)(=O)N3CCOCC3)cc2[N+](=O)[O-])CC1	-1	6

More records follow:
no.	canonical_smiles	NPYLR7 agonist	NPYLR7 agonist max-min
51	Cc1ccccc1CC(C)(C)NC(=O)NCCn1ccnc1	4	4
52	CN(CC1CCN(CCc2ccc(Cl)cc2)CC1)C1CCC1	17	6
53	Cc1nc(C)c(CC(=O)N[C@H]2CCC[C@H]2Cc2ccc(F)cc2)c(=O)[nH]1	14	11
54	O=C(O)Cc1c(-c2ccc(Cl)cc2)c2ccccc2[nH]c1=O	5	0
55	Nc1ccc2scnc2c1	-5	1
56	CC(=O)CSc1ncnc2c1nnn2Cc1ccc(Cl)cc1	15	12
57	Cn1nc(C2CCC2)cc1NC(=O)c1ccccc1F	-19	-20
58	CCOC(=O)C1(CC2CC2)CCN(C(=O)c2cccc(-c3cccc(F)c3)c2)CC1	17	13
59	CCn1cc(CN2CCOc3ccc(C4(O)CCN(c5ccccc5F)CC4)cc3C2)c(C)n1	24	15
60	CC(C)COC(=O)N1[C@@H](c2ccccc2)[C@@H](C(=O)O)C[C@]12CCCCNC2=O	5	15
61	N#CCc1nc(-c2ccc(C(F)(F)F)cc2)n[nH]1	3	0
62	CC(C1CC1)N(CC(F)(F)F)C(=O)c1cc(Cl)nc2ccccc12 (stereo not given)	-3	-4
63	CCOc1ccc(NC(=O)CN(C)S(=O)(=O)c2c(C(=O)OC)sc3ccccc23)cc1	11	18
64	CCc1[nH]c2c(CNC(=O)Cn3cc(C)cn3)cc(C)cc2c1C	11	9
65	O=c1cc(CN2CCCC(O)(CO)CC2)[nH]c2ccc(Cl)cc12 (stereo not given)	10	4
66	Cc1ccc(OCC2c3ccsc3CCN2C(=O)CN(C(=O)C2CCCC2)C2CC2)c(C)c1 (stereo not given)	-4	0
67	CCOC(=O)c1nn(-c2ccccc2C)c(=O)cc1OCC(=O)Nc1cccc(Cl)c1	9	2
68	O=C(c1ccc(Cl)s1)N(CCCn1ccnc1)c1nc2ccccc2s1	-16	-19
69	Cc1ccccc1NC(=O)N1C[C@@H](O)[C@H](NC2CCC(O)CC2)C1 (stereo not given in full)	8	2
70	COc1ccc(CCN(Cc2ccc(C)s2)C(=O)CN(C(=O)Nc2ccccc2Br)C(C)C)cc1OC	12	18
71	CCC(CC)C(=O)N(Cc1ccco1)Cc1cc(N)ccc1N(C)C	-6	-6
72	COc1ccc(-c2nc3c(c(=O)[nH]2)Cc2c(ccc4ccccc24)O3)c(OC)c1OC	-3	-5
73	CNC(=O)[C@@H]1[C@@H](OC(N)=O)C(=O)N(C)C12CCN(C(=O)c1ccc(C(F)(F)F)cc1)CC2	27	23
74	Nc1nnc(P(=O)(c2ccccc2)c2ccccc2)s1	6&2	3&3
75	CC1=NN(c2cccc(Cl)c2)C(=O)C12CC(C)=C(C)CS2(=O)=O (stereo not given)	9	3

5 entries from above, ordered by count of non-hydrogen atoms, ascending:
no.	canonical_smiles	NPYLR7 agonist	NPYLR7 agonist max-min
52	CN(CC1CCN(CCc2ccc(Cl)cc2)CC1)C1CCC1	17	6
75	CC1=NN(c2cccc(Cl)c2)C(=O)C12CC(C)=C(C)CS2(=O)=O (stereo not given)	9	3
62	CC(C1CC1)N(CC(F)(F)F)C(=O)c1cc(Cl)nc2ccccc12 (stereo not given)	-3	-4
68	O=C(c1ccc(Cl)s1)N(CCCn1ccnc1)c1nc2ccccc2s1	-16	-19
59	CCn1cc(CN2CCOc3ccc(C4(O)CCN(c5ccccc5F)CC4)cc3C2)c(C)n1	24	15

Returning to the listing with the 4 entries that preceded the break.
no.	canonical_smiles	NPYLR7 agonist	NPYLR7 agonist max-min
72	COc1ccc(-c2nc3c(c(=O)[nH]2)Cc2c(ccc4ccccc24)O3)c(OC)c1OC	-3	-5
73	CNC(=O)[C@@H]1[C@@H](OC(N)=O)C(=O)N(C)C12CCN(C(=O)c1ccc(C(F)(F)F)cc1)CC2	27	23
74	Nc1nnc(P(=O)(c2ccccc2)c2ccccc2)s1	6&2	3&3
75	CC1=NN(c2cccc(Cl)c2)C(=O)C12CC(C)=C(C)CS2(=O)=O (stereo not given)	9	3
76	O=C(Cn1cnc([N+](=O)[O-])n1)NCc1ccccc1	5	2
77	CSc1ccccc1C(=O)N(CCn1cccn1)c1nc2ccccc2s1	-20	-20
78	OCc1ccc(-c2nccnc2N2CCN(c3ccncc3)CC2)cc1	-4	-9
79	CC(=O)SC[C@@H](C)C(=O)N1CCC[C@H]1C(=O)N1CCN(Cc2cc3ccccc3o2)CC1	8	7
80	Cc1cccc(C(=O)N2CCN(c3ncccc3NC(=O)c3ccc4c(c3)OCO4)CC2)c1C	1	-2
81	CCOc1ccccc1C1C(C(=O)OCCOC)=C(C)NC2=C1C(=O)CC(c1ccccc1)C2 (stereo not given)	0	-2
82	Cc1nn(-c2ccccc2)c2nc(C3CCOCC3)nc(N3CCN(C(=O)c4cccc(Br)c4)CC3)c12	-2	1
83	CCOCCn1cc(C2CCN(C(=O)c3c(Cl)cc(Cl)cc3Cl)CC2)c2ccccc21	4	-2
84	COCCCN1CC2=C(C1=O)C(c1ccc(OC)cc1)NC(=O)N2C (stereo not given)	-2	6
85	COc1cc(NC(=O)N(CCCN2CCOCC2)CC(=O)N(Cc2ccc3c(c2)OCO3)Cc2ccco2)cc(OC)c1	6	2
86	Cc1cc(C)cc(CC(=O)N2CCC2(C)C(=O)NS(=O)(=O)c2ccc(C#N)cc2)c1 (stereo not given)	3	2
87	CC(=O)C(C)n1c(CN2CCN(c3ccccc3F)CC2)nc2c1c(=O)n(C)c(=O)n2C (stereo not given)	-3	-2
88	COc1cc(Cl)ccc1C(=O)N1C[C@H]2C[C@H](O)[C@H](O)C[C@H]2C1	1	-1
89	CC(NC(=O)CSc1nc2ccccc2s1)C12CC3CC(CC(C3)C1)C2 (stereo not given)	-7	-15
90	O=C(NCCc1cn2ccccc2n1)NC1CCCCCCC1	1	1
91	CSCCC(N)c1nc2ccccc2s1 (stereo not given)	-10&0	-10&4
92	COc1ccc(S(=O)(=O)Oc2cccc(CN(C(=O)c3ccccc3Cl)C3CC3)c2)cc1	0	5
93	COc1cc(=O)n(-c2ccccc2C)nc1C(=O)N1CCN(c2ccccc2F)CC1	3	3
94	CCOP(=O)(Cc1ccc(NC(=O)CCCNC(=O)OCc2ccccc2)cc1)OCC	-10	-13
95	O=C(c1c[nH]c(=O)c(Cl)c1)N(CCc1ccccc1)c1ccccc1	2	2
